Screening results as filed in PubChem.
Vaccinia Venus: inhibitors of vaccinia virus (Venus reporter). Vaccinia virus Venus reporter expression, fluorescence. Potency, µM (top dose mostly 36.5 µM), without a hit: at the highest dose activity change, negative = inhibition, actives largely listed as inhibitors. 0.46% of 330,000 active. AID 720580; active means well fitted inhibition curve with a large enough effect; inconclusive means small, poorly fitted or top-dose-only effect; inactive means no such curve, though single readings can be large or run the other way; tested in A549 cells; also: nearly all actives have a fitted effect of over 30% in size; inactives centre near -10
VACV mCherry inh: vaccinia inhibition (mCherry reporter); Potency, µM (top dose mostly 36.5 µM), for inactives: at the top dose activity change, negative = inhibition, actives largely listed as inhibitors; Vaccinia virus mCherry reporter infection, fluorescence; about a quarter of the inactives have no number; 0.63% of 310,000 active; active = well fitted inhibition curve with a large enough effect; inconclusive = small, poorly fitted or top-dose-only effect; inactive = no such curve, though single readings can be large or run the other way; tested in A549 cells; also: nearly all actives have a fitted effect of over 35% in size; inactives centre near -10
An asterisk follows results filed as active; i = inactive; ? = inconclusive; . = no result given; & = joins results of further samples; [ ] = dose if it differs, or a comment. % is scaled to controls: 0 for no effect and ±100 for the full control effect; potency is read from the fitted curve at half-maximal effect.

structure | Vaccinia Venus | VACV mCherry inh
CC(C)N1C(=O)/C(=C\c2nc3ccccc3c(=O)[nH]2)c2ccccc21 | -5.9% | -11.3%
CCOC(=O)c1cc(-c2ccccc2C)nn1CC1CC(c2ccc(OC)cc2)=NO1 (configuration not stated) | -9.1% | i
O=C(CNC(=O)c1ccccc1Cl)Nc1ccc(Br)cc1C(=O)c1ccccc1 | -12.4% | i
CCOC(=O)N1CCN(C(=O)CCCn2nc(C)c3sc4ccccc4c3c2=O)CC1 | -0.4% | -7.4%
COC(=O)[C@H](Cc1ccc(O)cc1)NC(=O)Cn1cnc2c(SC)nc(N)nc21 | 0.0% | -11.4%
COc1ccc(-n2c(C)cc(C)c(C(C)=O)c2=S)cc1 | -5.7% | -13.7%
Cc1cccc(C)c1N1C(=O)CC(N2CCSCC2)C1=O (configuration not stated) | -2.7% | -15.5%
CC(=O)N1CCN(C(=O)COc2ccccc2C(=O)Nc2ccccc2)CC1 | -12.0% | -4.4%
COc1ccccc1N1CCN(C(=O)c2ccc(CSc3ccccc3)cc2)CC1 | -11.1% | i
O=C(CC(=O)c1ccccc1)Nc1ccc(Cl)cc1 | -28.4% | i
CNC[C@H](NC[C@@H](NCCCc1ccccc1)c1ccccc1)[C@H](C)O | -4.5% | -4.3%
COC(=O)c1cccc(NC(=O)N(C)CCc2c(C)nn(C)c2C)c1 | 1.8% | -9.1%
COc1ccc(N(C(=O)COc2ccccc2OC)S(=O)(=O)c2ccc(C)cc2)cc1 | ? | .
CC1=C(C(=O)Nc2cc(-c3cccc(F)c3)[nH]n2)C2(CCCCC2)OC1=O | -16.5% | i
O=C(O)CNC(=O)c1ccccc1Br | 3.1% | -11.8%
Cc1ccc(-n2ncc3c2CC(C)(C)CC3NC(=O)CCc2ccc(=O)[nH]n2)cc1 (configuration not stated) | 0.1% | -12.2%
CCCNC(=O)N1CCCC(C(N)=O)C1 (configuration not stated) | -0.3% | i
COc1ccc(-c2nc(SCC(=O)NC3CCCC3)c(-c3ccccc3)[nH]2)cc1OC | 1.1% | -5.4%
O=C(Cn1c(NCCCO)nc2ccccc21)c1ccco1 | -9.6% | -10.7%
COc1cccc(CNC(=O)CSc2nnc3c(n2)[nH]c2ccc(OC)cc23)c1 | 1.6% | -0.4%
COC(=O)C1=C(C)NC(=O)C1(NC(=O)CN1CCCC1=O)C(F)(F)F (configuration not stated) | 8.1% | .
O=C(NCCc1c[nH]c2ccccc12)c1ccccc1 | -8.5% | -21.9%
COc1cccc(N2C(N)=NC(N)=NC2(C)C)c1 | ? | .
COc1ccc(CNC(=O)CN(c2cccc([N+](=O)[O-])c2)S(C)(=O)=O)cc1 | -3.1% | i
CCCCN1CNC(=S)N(c2ccccc2OCC)C1 | -3.0% | -1.9%

Arranged by SMILES length (rising): some entries from above
structure | Vaccinia Venus | VACV mCherry inh
O=C(NCCc1c[nH]c2ccccc12)c1ccccc1 | -8.5% | -21.9%
CNC[C@H](NC[C@@H](NCCCc1ccccc1)c1ccccc1)[C@H](C)O | -4.5% | -4.3%
COc1ccc(CNC(=O)CN(c2cccc([N+](=O)[O-])c2)S(C)(=O)=O)cc1 | -3.1% | i

Additional records:
structure | Vaccinia Venus | VACV mCherry inh
Nc1cc(=O)[nH]c(SCC(=O)NNC(=O)c2ccccc2)n1 | -9.1% | i
C[C@H]1CN([C@@H](C)CO)C(=O)c2cccc(NS(=O)(=O)c3ccc(F)cc3)c2O[C@H]1CN(C)S(=O)(=O)c1cn(C)cn1 | -5.3% | -21.0%
CN(CC(=O)Nc1ccc(Cl)c(Cl)c1)C(=O)c1ccccc1SCC(=O)N1CCCC1 | -27.4% | -4.7%
CCn1c(COC(=O)CNC(=O)c2cc(OC)c(OC)c(OC)c2)nc2cc(S(=O)(=O)N(C)C)ccc21 | -9.4% | -0.3%
Cc1ccc(NC(=O)c2cc(-c3ccccc3O)n[nH]2)cc1Cl | -9.4% | i
O=C(NCc1ccco1)c1nn2c(C(F)(F)F)cc(-c3cccs3)nc2c1Cl | -4.9% | -12.2%
CCCC12CN3CC(C)(CN(C1)C3c1cn(C)c3ccccc13)C2=O (configuration not stated) | -9.9% | -9.1%
C/C=C(\C)C(=O)NCCN1C2=NC[C@H](Cc3ccc(O)cc3)N2C[C@@H]1Cc1ccc(OC)cc1 | -14.9% | i
CN(C)c1oc(/C=C/c2ccccc2)nc1C#N | -14.8% | -16.3%
COc1ccc(NC(=O)CSc2nc3ccccc3c(=O)n2C)cc1 | -24.2% | i
CCC(CC)C(=O)Nc1ccc(C)c(O)c1 | 2.4% | -10.8%
O=C(/C=C/c1ccc(F)cc1)NC(=S)Nc1ccccc1C(=O)NC1CCCCC1 | -8.6% | -10.2%
CCOc1ccc(CCN2C(=S)N([C@@H](Cc3ccc(O)cc3)CN3CCC[C@@H]3CN3C(=S)NC[C@@H]3Cc3ccccc3)C[C@@H]2Cc2ccc(O)cc2)cc1 | ? | ?
COc1ccccc1NC(=O)NCCN1CCNC1=O | 3.0%[7.34 µM] | i[7.34 µM]
O=c1[nH]c2ccc(NC(=S)Nc3ccc(Cl)cc3)cc2[nH]1 | -21.2% | -12.9%
O=C(COC(=O)c1cccs1)NCc1cccs1 | -8.3% | 0.5%
COc1ccccc1NC(=O)CN1C(=O)CCSc2ccccc21 | 6.6% | -2.4%
COC(=O)c1c(NC(C)=O)sc(C(=O)Nc2ccccc2F)c1C | -1.1% | -3.9%
COCCCNC(=O)CCc1nnc(Cc2ccc(-c3ccccc3)cc2)o1 | -1.6% | i
O=C(CCN1C(=O)/C(=C/c2ccc(Cl)cc2)SC1=S)Nc1cccc(C(=O)O)c1 | 8.9% | 1.3%
O=C(CCS(=O)(=O)Cc1ccccc1)Nc1nc2c(s1)CCCC2 | ? | -28.3%
COc1ccc(Cc2nnc(NC(=O)c3ccc(C)cc3)s2)cc1OC | -2.9% | i
COc1ccc(C)cc1NC(=O)Nc1ccc(C(=O)N2CCCC2)cc1 | -18.5% | -29.7%
COc1ccccc1NS(=O)(=O)c1cc(NC(=O)CNC(=O)c2cc(C)cc(C)c2)ccc1C | -27.4% | -21.4%
Cc1nc2nc(NCc3ccc(Br)cc3)[nH]n2c(=O)c1Cc1ccccc1 | 3.4% | -18.0%
COc1ccc(CCC(=O)NCc2ccc3c(c2)OCO3)cc1 | -17.8% | i
Cc1ccc(C(=O)Nc2ccc3nc(SCC(=O)N4CCc5ccccc54)sc3c2)cc1 | -17.2% | -7.9%
O=C(O/N=C1\CCCc2ccccc21)c1cccs1 | -5.9% | i
CC(=O)C[C@H]1c2cc(C(F)(F)F)ccc2S(=O)(=O)N1C1CCCC1 | -8.4%&-15.6% | i
OC(CCCN1CCCCC1)(c1ccccc1)c1ccccc1 | -14.3% | i
Cn1c2c(c(=O)n(C)c1=O)C(c1ccc(Cl)cc1)C(C#N)=C(N)O2 (configuration not stated) | -7.0% | -22.2%
COc1cc(NC(=O)c2ccccc2)c(OC)cc1NC(=O)Cc1cccs1 | -9.1% | i
COc1cccc(S(=O)(=O)NCC(=O)Nc2ccc(C(C)(C)C)cc2)c1 | -25.5% | -28.4%
CCOc1ccc(N2CC(C(=O)NC(C)C)CC2=O)cc1 (configuration not stated) | -11.3% | -11.9%
CC1CCc2cc(F)ccc2N1C(=O)c1cc2nc(-c3ccco3)cc(C(F)(F)F)n2n1 (configuration not stated) | -1.9% | 5.7%
CCOc1ccc(NC(=O)Cn2c(=O)n(CCCC(=O)NC3CCN(Cc4ccccc4)CC3)c(=O)c3ccccc32)cc1 | 0.6% | -1.0%
O=C(c1ccc(Br)o1)N1CCN(c2ncccn2)CC1 | -3.0% | -14.8%
O=C(CSc1ncn[nH]1)Nc1ccc(OCc2ccccc2)cc1 | -14.7% | -41.9%
O=C(NCC(=O)N(Cc1ccccc1)C(C(=O)NCC1CCCO1)c1ccccc1)c1ccco1 (configuration not stated) | 0.2% | -3.8%
COc1ccc(NC(=O)N(C)C[C@H]2Oc3c(NC(=O)Nc4c(C)noc4C)cccc3C(=O)N([C@H](C)CO)C[C@@H]2C)cc1 | 0.0% | i
CCN(C(=O)C(=O)Nc1ccc2nc3n(c(=O)c2c1)CCCCC3)c1ccc(F)cc1 | 3.2% | 5.7%
CC(CNC(=O)CCc1nnc(CCC2CCCCC2)o1)c1ccccc1 (configuration not stated) | -16.1% | -11.7%
COc1ccc(N2CCN(C(=O)CSc3nc(-c4ccc(C(C)C)cc4)no3)CC2)cc1 | -8.6% | i
Cc1cccc(CN2CCN(c3ncccn3)CC2)c1 | 0.0% | -12.0%
O=C(Nc1ccccc1)c1cc(C2CCCN(C(=O)c3ccccc3)C2)on1 (configuration not stated) | -0.5% | -8.5%
Cc1ccc(OCCOc2cccc(/C=N/NC(N)=O)c2)cc1 | -3.1% | i
C[C@@H]1CN([C@H](C)CO)S(=O)(=O)c2ccc(Br)cc2O[C@H]1CN(C)C(=O)Cc1ccccn1 | -9.1% | -5.1%
COc1cccc(C=C2SC(=S)NC2=O)c1 | -10.8% | -6.2%
O=C(NCc1cccnc1)c1cnn(-c2ncc3c(n2)-c2ccccc2CCC3)c1C1CC1 | -8.9% | -15.7%
CCOC(=O)c1cccc(NC(=O)CN(c2ccc(OC)cc2)S(=O)(=O)c2c(C)noc2C)c1 | -7.8% | -12.4%

Remaining list, next part:
structure | Vaccinia Venus | VACV mCherry inh
CSc1nnc(N(CCC#N)CCC#N)s1 | 1.6% | -10.8%
O=C(Nc1ccccc1)c1ccccc1OCc1ccc(S(=O)(=O)N2CCOCC2)cc1 | -6.6% | i
Cc1ccc(S(=O)(=O)N(C)C[C@H]2Oc3ncc(Br)cc3C(=O)N([C@H](C)CO)C[C@@H]2C)cc1 | -18.2% | -5.7%
CCC(=O)C1=C(c2ccccc2)N(C(=O)CC)n2c(nnc2-c2ccccc2)S1 | -6.7% | -12.5%
CCC1c2ccccc2C(=O)C1C(N)=O (configuration not stated) | -8.2% | i
COC(=O)C1=C(c2ccccc2OCc2ccccc2)C[C@@H]2CC[C@H]1N2C(=O)NCCOc1ccc(OC)cc1 | ? | ?
CCC1(OC(=O)c2ccccc2)CC(C)N(C)CC1C (configuration not stated) | 30.4%[activator] | -2.8%
Cc1cccc(Cn2c(C)c(CNC3CCCCC3)c(C(=O)O)c2C)c1 | -4.5% | 4.2%
COc1cccc(CNC(=O)COC(=O)c2cccc(S(=O)(=O)N3CCN(C(C)=O)CC3)c2)c1 | -15.3% | i
Cc1ccc(C=Cc2ccccn2)cc1 | -0.9% | -2.6%
C=CCNC(=S)Nc1cccc([N+](=O)[O-])c1 | -8.2% | ?
Nn1c(SCC(=O)NC2CCS(=O)(=O)C2)nnc1-c1cccs1 (configuration not stated) | 6.9%[7.34 µM] | 1.6%[7.34 µM]
CCN(CC)S(=O)(=O)c1ccc(C(=O)OCC(=O)NC2CCCC2)cc1 | -11.9% | -0.3%
Cc1[nH]n(C)c(=O)c1C(=O)c1c(-c2c(Cl)cccc2Cl)noc1C | -16.1%[7.34 µM] | -5.0%[7.34 µM]
CCN(CC)CCCNC(=O)c1c(O)c2ccccc2n(Cc2ccccc2)c1=O | ? | ?
Cc1ccc(C(=O)Oc2cccc(-n3cnnn3)c2)cc1 | -10.6% | -11.1%
Cc1ccc(C)c(N2CCN(C(=S)NC3CCCCC3)CC2)c1 | -3.8% | -3.5%
CC/C(C)=N/Nc1nc(-c2cc3cccc(OC)c3oc2=O)cs1 | 6.1% | ?
O=S(=O)(c1cccc(-c2nnco2)c1)N1CCOCC1 | -6.9% | -16.3%
Nc1c(C(=O)NC23CC4CC(CC(C4)C2)C3)sc2nc3c(c(C(F)(F)F)c12)CCC3 | -14.4% | -13.6%
Cc1cc(C(=O)Nc2cccnc2)on1 | 0.8% | -12.2%
CC1(C)Cc2c(C#N)c(NCCN3CCOCC3)nc(-c3ccccc3)c2CO1 | -7.1% | i
COC(=O)c1ccc(CSc2nc(N3CCOCC3)c3c(c2C#N)CC(C)(C)OC3)o1 | -12.8% | i
CCOc1cc(/C=C2/C(=N)N3C(=NC2=O)SN=C3S(C)(=O)=O)ccc1OC(=O)c1ccco1 | -5.4% | i
CCCNC(=O)N(C)C[C@H]1Oc2ncc(C#CCc3ccccc3)cc2C(=O)N([C@H](C)CO)C[C@H]1C | -23.8% | 5.6%

A different layout for some results above.
Below each SMILES: Vaccinia Venus, VACV mCherry inh
> Nc1c(C(=O)NC23CC4CC(CC(C4)C2)C3)sc2nc3c(c(C(F)(F)F)c12)CCC3
  -14.4%, -13.6%
> Cc1cc(C(=O)Nc2cccnc2)on1
  0.8%, -12.2%

The list goes on:
structure | Vaccinia Venus | VACV mCherry inh
CCN(CC)S(=O)(=O)c1ccc(C(=O)C(C#N)c2ccccn2)cc1 (configuration not stated) | 4.0% | -6.5%
Cc1cc(C(=O)NNC(=O)c2ccc(Cl)cc2Cl)c(C)o1 | -15.8% | i
COCCN(C(=O)Cc1cccs1)c1nnc(-c2ccncc2)s1 | 1.4% | -12.9%
CC(C)NC(=S)NC(=O)c1ccc(-c2ccccc2)cc1 | -16.1% | -23.6%
Cc1oc(-c2ccc(Cl)cc2)nc1CS(=O)CC(=O)NCc1ccc2c(c1)OCO2 (configuration not stated) | -9.8% | -0.6%
COc1cccc(N2CCN(C(=O)C3CCCN(S(=O)(=O)c4cnc[nH]4)C3)CC2)c1 (configuration not stated) | -7.6% | i
CC(CN1CCCCCC1)C(=O)NN (configuration not stated) | 9.1% | 0.5%
CN(C)N=Nc1ccc(S(=O)(=O)NC(=O)Cc2ccccc2)cc1 | -10.6% | i
